# Mtb hypoxia inh – Mtb hypoxia fluorescent reporter inhibition; M. tuberculosis hypoxia-regulated fluorescent reporter, fluorescence; hit rate 0.1% among 300,000; AID 1159583; fluorescence inhibition, % (concentration not given with the values);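 active = 35 to 45% if threefold the growth effect, above 45% if 1.5-fold the growth effect; inactive = the rest, general growth blockers included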;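 note: wells of about 50 µL received 100 nL stock; 0% = vehicle wells and 100% = reference inhibitor wells; whole bacteria with a GFP reporter of the hypoxia response; strong numbers were not always called active; many hits fall short of the cut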
# ugtP null kill – growth inhibition of S. aureus ugtP deletion strain | S. aureus RN4220 ugtP deletion, OD600 growth, 16 h; some inactives read as strong as hits | AID 1259309 | growth inhibition, % (test concentration not listed) | hit rate 0.54% among 330,000;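 active = z-score under -3 and OD600 up to 0.15 on both plates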;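 note: plate controls were untreated wells for no effect and antibiotic for full effect; wells of about 80 µL received 100 nL stock; the first replicate is given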
# PrP 5UTR inh – inhibition of PrP 5' UTR reporter expression | cell-based PrP 5' UTR mRNA reporter, plate reader | inhibition, % (no concentration beside the values) | hit rate 0.35% among 340,000;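 active = every replicate at 50% or more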;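 note: 0 = median of the neutral control wells; tested in H4 reporter cells; numbers are from one replicate; inactives centre near -14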
# BJeLR lethal – BJeLR cell viability loss; BJeLR (HRASV12) viability, CellTiter-Glo ATP luminescence, 48 h; reference of the scale not given here; inhibition, % (test concentration not listed); hit rate 0.17% among 300,000; AID 1554;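 active = replicate mean above 50%; inconclusive = above 50% but judged a plate artefact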;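 note: 50 nL library stock added to about 25 µL; numbers are from one replicate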
# Autofluor counter – compound fluorescence in toxin protease inhibitor counterscreen; compound autofluorescence counterscreen, microsphere flow cytometry; active compounds read high; fluorescence intensity (no concentration beside the values); hit rate 3.1% among 360,000; AID 624483;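 active = at least 3 SD above the mean of all compounds, about 16000 in these data; inconclusive = too few beads counted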;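 note: 100 nL of 1 mM stock went into each well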
# Sa RN4220 lethal – kills Staphylococcus aureus RN4220. hit rate 0.33% among 330,000. inhibition, % (concentration not given with the values). AID 1259311. S. aureus RN4220 growth, OD600, 16 h;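 active = z-score of -3 or lower and OD600 up to 0.18 on both plates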;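 note: plate controls were untreated cells for no effect and reference antibiotic for full effect; stock transfer was 100 nL into about 80 µL; one replicate is shown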
# Mtb hypoxia inh growth – also measured in Mtb hypoxia inh; calls as there; growth inhibition, %; measured here: M. tuberculosis growth (absorbance);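 0% = vehicle and 100% = reference antibiotic; read after six days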
# An asterisk follows results filed as active; ? = inconclusive; · = not tested or not shown; & = joins results of further samples; ! = not active in a repeat.
# Sample of the layout:
SMILES,Mtb hypoxia inh,Mtb hypoxia inh growth,ugtP null kill,PrP 5UTR inh,BJeLR lethal,Autofluor counter,Sa RN4220 lethal
Cc1ccc(Nc2nc(N=CNO)n[nH]2)cc1C,-2,5,4,·,·,·,5.0
Oc1ccccc1O,6,0,11,-23,·,6044,12
CN(C)c1cc[n+](CC(=O)Nc2c(Cl)cc(Cl)cc2Cl)cc1,-3,3,1,3,1,4606,2.1
O=C(COC(=O)c1ccccc1N1C(=O)C2C3CCC(C3)C2C1=O)c1ccccc1 (centres undefined),1,2,-7,-11,1,2939,0.4

# Results, from the start:
SMILES,Mtb hypoxia inh,Mtb hypoxia inh growth,ugtP null kill,PrP 5UTR inh,BJeLR lethal,Autofluor counter,Sa RN4220 lethal
Cc1ccc(Nc2nc(N=CNO)n[nH]2)cc1C,-2,5,4,·,·,·,5.0
Oc1ccccc1O,6,0,11,-23,·,6044,12
CN(C)c1cc[n+](CC(=O)Nc2c(Cl)cc(Cl)cc2Cl)cc1,-3,3,1,3,1,4606,2.1
O=C(COC(=O)c1ccccc1N1C(=O)C2C3CCC(C3)C2C1=O)c1ccccc1 (centres undefined),1,2,-7,-11,1,2939,0.4
COc1ccc2sc(N(CCCN(C)C)C(=O)c3ccc(C(=O)c4ccccc4)cc3)nc2c1,12,8,-2,-23,3,4639,-3.2
CCCc1cc(=O)oc2cc(C)cc(OCc3nn[nH]n3)c12,2,4,0,-13,-7,3230,6.4
Cc1cc(C)c(NS(=O)(=O)c2c(C(=O)N3CCOCC3)c(C)n(C)c2C)c(C)c1,-2,-1,1,-2,-3,5249,6.7
COc1ccc(S(=O)(=O)NC2CCCCC2)cc1F,5,-5,3,-21,3,6324,-3.7
COc1ccc(CCN2CC34C=CC(O3)C(C(=O)NCc3ccccc3Cl)C4C2=O)cc1OC (centres undefined),16,7,2,4,-8,3126,1.7
CC1CCN(C(=O)C(C)Sc2nc(-c3ccccc3)cc(C(F)(F)F)n2)CC1 (centres undefined),0,9,-3,-10,-13,3372,-1.1
CCOc1ccc(NC(=O)C(c2ccccn2)N(C(=O)CCl)c2ccc(OC)cc2)cc1 (centres undefined),-5,5,-5,-21,12,2544,14
CN(C)S(=O)(=O)c1ccc(NC(=O)CSc2nnc(-c3ccco3)o2)cc1,1,-2,6,-27,·,4552,5.0
Cc1ccc(OCCC(=O)Nc2c(C)n(C)n(-c3ccccc3)c2=O)cc1,9,8,1,-3,11,3485,-16
CN(C)CCCN(C(=O)c1ccc(S(=O)(=O)N(C)Cc2ccccc2)cc1)c1nc2c(F)cccc2s1,0,3,-2,-10,5,6281,-3.4
S=c1[nH]nc(-c2cc(-c3ccccc3)n[nH]2)n1/N=C/c1ccc(Br)s1,·,·,·,-64,-8,4213,·
O=c1c2ccccc2ncn1Cc1ccco1,7,6,5,-40,-8,7829,0.9
Cc1c(C)c2ccc(OCC(=O)Nc3ccc(CN4CCOCC4)cc3)cc2oc1=O,-6,9,20,-6,-8,5830,2.0
COc1ccc(-c2sc3cc(OC)ccc3c2-c2ccc(OCCN3CCOCC3)cc2)cc1,2,4,14,-21,·,3710,-2.1
COc1ccc(NC(C)=O)cc1S(=O)(=O)NC(C)c1ccc(-n2ccnc2)cc1 (centres undefined),7,5,0,-26,·,8812,-0.9
CCOc1ccc(N=C(C)c2ccccc2O)cc1,-6,-6,-1,6,-7,9967,4.0
O=C(CN1CCCC1)N1c2ccccc2Sc2ccccc21,·,·,-9,-9,2,2825,-2.8
Cc1sc(N)nc1-c1c(C)n(C)c2ccccc12,-3,-1,5,-8,0,3148,1.5
CCOC(=O)N1CCN(S(=O)(=O)c2c(C)nc3scc(C)n3c2=O)CC1,9,4,3,-23,1,4781,-0.2
Cn1c(=O)c2c(nc(SCC(=O)Nc3ccccc3N3CCCCC3)n2C)n(C)c1=O,21,11,3,-14,-2,10168,6.4
COc1ccc(CCNC(=O)C(=O)NCC2OCCN2S(=O)(=O)c2ccc(Br)cc2)cc1 (centres undefined),-9,2,-2,-4,3,2085,-2.2
COc1cc(OC)cc(-c2c(C#Cc3ccsc3)c3cc(-c4ccc(SC)cc4)ccc3n2C)c1,12,3,-2,-4,·,3854,7.0
Cc1ccc(S(=O)(=O)NCC(=O)OCC(=O)NCc2cccs2)cc1,-6,4,-1,-4,-1,?,-0.1
O=S(=O)(c1ccc(Cl)cc1Br)N1CCCCC1,14,8,-4,-5,-3,20568*,8.7
Cc1ccc(N2C(=O)C3ON(c4ccccc4)C(c4ccncc4)C3C2=O)cc1 (centres undefined),-6,-15,0,-48,10,20770*,-3.8
CC1CCN(CC(=O)c2c[nH]c3ccccc23)CC1,-1,-2,-4,-15,-4,3565,6.5
COc1ccc(OC)c(CN2CCN(C(=O)c3cccc(S(=O)(=O)Nc4ccc(F)cc4)c3)CC2)c1,9,6,2,-9,·,4087,4.5
Cc1ccnc2nc(C(=O)Nc3ccc(S(=O)(=O)N4CCCC4)cc3)nn12,-5,-4,4,-27,14,5415,3.3
CC(C)N(CCO)C(=O)CCc1nnc(CCCc2ccccc2)o1,-5,3,6,-26,-4,2013,2.9
COc1ccc(-c2nn(CCC#N)cc2C=NO)cc1,10,-4,8,·,·,·,1.4
CC(C)C(NC(=O)C1CCCCC1)C(=O)Nc1ccc2c(c1)OCCO2 (centres undefined),11,-4,4,-27,7,5863,2.5
CC1=C(C(=O)OCc2ccccc2)C(c2cccnc2)n2ncnc2N1 (centres undefined),5,7,16,9,-9,2386,17
COc1ccc(C(C)NC(=O)Cc2ccc(Br)cc2)cc1 (centres undefined),11,9,9,-4,0,2534,-1.0
Cc1cc(Cl)c2oc(C(=O)N(C)C(C)c3ccccn3)c(C)c2c1 (centres undefined),14,18,-7,-26,1,5727,6.5
CC(=O)Nc1ccc(NC(=S)Nc2ccccc2)cc1,·,·,-2,-50,-6,2136,-4.8
CC(C)c1ccc(NC(=O)CCNS(=O)(=O)c2cccc3nonc23)cc1,-78,-10,6,-12,2,9680,5.3

# Quoted from the results shown for reference:
SMILES,Mtb hypoxia inh,Mtb hypoxia inh growth,ugtP null kill,PrP 5UTR inh,BJeLR lethal,Autofluor counter,Sa RN4220 lethal
CC1=C(C(=O)OCc2ccccc2)C(c2cccnc2)n2ncnc2N1 (centres undefined),5,7,16,9,-9,2386,17
COc1ccc(C(C)NC(=O)Cc2ccc(Br)cc2)cc1 (centres undefined),11,9,9,-4,0,2534,-1.0
Cc1cc(Cl)c2oc(C(=O)N(C)C(C)c3ccccn3)c(C)c2c1 (centres undefined),14,18,-7,-26,1,5727,6.5
CC(=O)Nc1ccc(NC(=S)Nc2ccccc2)cc1,·,·,-2,-50,-6,2136,-4.8
CC(C)c1ccc(NC(=O)CCNS(=O)(=O)c2cccc3nonc23)cc1,-78,-10,6,-12,2,9680,5.3

# The listing continues.
SMILES,Mtb hypoxia inh,Mtb hypoxia inh growth,ugtP null kill,PrP 5UTR inh,BJeLR lethal,Autofluor counter,Sa RN4220 lethal
O=C1/C(=C\c2cccnc2)Sc2ccccc21,7,-8,-6,-21,8,2324,21
Cc1ccc(OCC(=O)NC(=S)Nc2ccc(Br)cn2)cc1,6,-8,3,-14,14,5489,3.8
COc1cc(/C=C2/C(=O)N(C)C(=S)N2C)ccc1OCc1cccc(F)c1,12,4,3,-20,-1,4116,13
Cc1nnc(SCC(=O)NCc2ccc3c(c2)OCO3)s1,1,-1,6,·,-7,7650,1.3
Cn1c2ccccc2c2nnc(SCC(=O)Nc3ccccc3F)nc21,-6,4,1,2,-5,3735,2.1
CC(CN(C)Cc1ccccc1)OC(=O)C1COc2ccccc2O1 (centres undefined),·,·,3,-11,-4,5647,3.1
O=C(CSc1n[nH]c(-c2ccccc2Br)n1)NC(=O)NCc1ccco1,15,12,11,-10,-14,3321,0.1
Cc1cccc(C(=O)Nc2ccc(NC(=O)CN3CCOCC3)cc2)c1,4,9,9,-1,-1,5100,-0.5
Cc1c(Cc2ccccc2)c(=O)oc2c(C)c(OCc3nn[nH]n3)ccc12,·,·,8,-5,·,4847,9.5
CC(Nc1nc(-c2ccc(F)cc2)cs1)c1nc2cc(C(F)(F)F)ccc2n1CCCO (centres undefined),5,3,-2,-20,-2,3974,-11
CCN(CC)c1ccc(C=NNc2nn[nH]n2)cc1,5,7,-3,·,·,·,9.5
COC1=CC(=Cc2c(O)c(C#N)c3ccccn23)C=CC1=O,-11,-10,3,·,·,·,1.8
COc1cc(C(=O)Nc2cnc(NC(=O)C(C)C)cc2C)cc(OC)c1OC,·,·,-3,-12,-2,4486,0.8
CC(=NNc1ccc(S(=O)(=O)Nc2ccccc2)cc1[N+](=O)[O-])c1ccncc1,-1,12,-1,·,·,·,2.2
COc1ccc(CCC(=O)Nc2nc3ccccc3[nH]2)cc1,5,6,-6,-58,6,3218,-8.9
CC(C)[C@H](N)C(=O)N1CCC(C(=O)N[C@@H](Cc2ccccc2)C(=O)NCc2ccc(F)cc2)CC1,11,2,12,-17,9,4591,3.7
CS(=O)(=O)c1ccccc1-c1nnc(NC(=O)c2ccc3ncsc3c2)o1,7,4,-1,-22,-8,?,4.8
CCCCOc1ccc(C2C(=O)N(C3CCCCC3)CC(=O)N2CC2CCCO2)cc1 (centres undefined),1,1,3,-23,-12,11234,0.6
CC(N)C(=O)c1ccco1 (centres undefined),·,·,-13,-10,2,2786,-0.8
CSc1nc(-c2ccccc2)nn1C(=O)c1ccc(C)cc1,3,10,6,-13,-8,4014,-1.1

# Looked up above:
# ugtP null kill with CC(N)C(=O)c1ccco1 (centres undefined) = -13
# Autofluor counter with COc1ccc(CCC(=O)Nc2nc3ccccc3[nH]2)cc1 = 3218
# Mtb hypoxia inh with COC1=CC(=Cc2c(O)c(C#N)c3ccccn23)C=CC1=O = -11
# Sa RN4220 lethal with CCCCOc1ccc(C2C(=O)N(C3CCCCC3)CC(=O)N2CC2CCCO2)cc1 (centres undefined) = 0.6
# PrP 5UTR inh with CS(=O)(=O)c1ccccc1-c1nnc(NC(=O)c2ccc3ncsc3c2)o1 = -22

# Going on with the list.
SMILES,Mtb hypoxia inh,Mtb hypoxia inh growth,ugtP null kill,PrP 5UTR inh,BJeLR lethal,Autofluor counter,Sa RN4220 lethal
CCOC(=O)CCC(=O)NCc1ccc2[nH]c(C)cc2c1,7,5,14,-2,-4,8762,6.0
CC(NC(=O)COC(=O)C1CC2CCCC(C1)C2=O)c1ccccc1 (centres undefined),15,38,2,-19,·,3985,0.6
O=C1C2CCCN2C(c2cccs2)N1c1ccc(F)cc1 (centres undefined),10,-1,0,-23,-3,4198,1.9
O=C(NN=Cc1ccccn1)c1cc(-c2ccccc2Cl)n[nH]1,11,11,5,·,·,·,2.7
O=S(=O)(Nc1nnc(-c2ccccc2)s1)c1ccc(Cl)cc1,·,·,-17,-21,-1,3437,2.5
COc1ccc(Cn2c(CCC(=O)Nc3ccccc3)nc3cccnc32)cc1,3,-2,2,-14,-7,3486,2.4
CCOc1ccc(-n2c(Cc3cc(=O)[nH]c(=O)[nH]3)nnc2SC(C)C)cc1,0,-4,16,-13,10,4644,7.5
CC(=O)c1sc(NC(=O)C2CC(=O)N(Cc3ccccc3)C2)nc1-c1ccccc1 (centres undefined),6,-1,-4,-12,-4,4454,6.2
Cc1cc(SCC(=O)NN=Cc2cccnc2)nc2c(C)cccc12,6,15,8,·,·,·,1.5
CCn1cc(C(=O)O)c(=O)c2cc(F)c(N3CCN(C(=S)NC(=O)c4cc(OC)cc(OC)c4)CC3)cc21,5,-2,99*,-8,0,5789,100*
COc1ccc(C(=O)Nn2c(C)nc3ccccc3c2=O)cc1Br,17,-1,9,-17,-10,2891,2.5
O=C(CN(Cc1ccccc1F)C(=O)c1csnn1)NCc1ccc2c(c1)OCO2,-4,-5,9,-1,3,4245,6.7
CN(CCCN1CCCCC1)C(=O)CCc1nnc(C2CCCCC2)o1,10,2,2,-22,-3,4892,6.2
COc1ccc(CCN(Cc2cc3ccc(C)cc3[nH]c2=O)C(C)=O)cc1OC,-1,-6,4,-12,-2,5268,-0.4
NC1=NCC(Cc2ccc(O)cc2)N1CCC12CC3CC(CC(C3)C1)C2 (centres undefined),8&2,26&8,101*!,·,·,·,101*!
